# CSC inhib – blocks cancer stem cells; inhibition, % at 7.5 µM; cancer stem cell-like cells viability, luminescence; AID 2717; 1.1% of 300,000 active;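 active = mean at 75% or more and at least half the replicates too; inconclusive = mean and replicates disagree; tested in HMLE shEcad cells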;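 note: 0% = median of negative and 100% = median of positive control wells; the first replicate is given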
# Yeast UUG start – alters start codon recognition fidelity in yeast; S. cerevisiae UUG-firefly luciferase reporter, luminescence/redox ratio; activity score, % at 18.7 µM; 0.13% of 350,000 active; AID 602363;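 active = replicate mean at a twofold rise or more, about +100% in these data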;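 note: firefly luciferase made from a UUG start codon reports start codon fidelity; reporter light over untreated wells divided by growth signal over untreated wells; some hits fall short of that in this replicate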
# Rce1 inh – blocks yeast Ras-converting enzyme; 0.27% of 290,000 active; yeast membranes, quenched prenylated peptide cleavage fluorescence; Q03530; calls only; AID 2563;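 active = fall in fluorescence gain of 50% or more versus controls, with final raw signal at or below 3038400; inconclusive = same 50% fall but final raw signal above 3038400; inactive = fall in fluorescence gain under 50%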;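 note: plate controls were neutral control wells for no effect and wells lacking membranes for full effect; tested at 10 µM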
# Target sequence (Q03530 whole entry, looked up): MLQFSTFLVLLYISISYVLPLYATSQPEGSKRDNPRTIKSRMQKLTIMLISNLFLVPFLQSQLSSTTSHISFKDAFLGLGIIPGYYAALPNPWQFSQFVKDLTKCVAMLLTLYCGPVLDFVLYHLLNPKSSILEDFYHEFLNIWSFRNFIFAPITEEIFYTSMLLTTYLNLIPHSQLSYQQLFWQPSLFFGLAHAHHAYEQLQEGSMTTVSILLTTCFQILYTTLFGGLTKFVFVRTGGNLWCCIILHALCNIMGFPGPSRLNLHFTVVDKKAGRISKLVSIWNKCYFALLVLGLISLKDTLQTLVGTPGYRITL
# PABP FP inh – blocks human PABP binding to poly(A) RNA; P11940; fluorescence polarization; inhibition, % at 35 µM; 1% of 290,000 active; AID 2014;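 active = 50% or more with normal probe brightness, or confirmed in later tests; inconclusive = above 50% with abnormal brightness, or retests that disagree; inactive = below 50% or failed in later tests; about a fifth of its hits are not listed in these tables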;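 note: calls also rest on retests at 20 µM and on dose response follow-up; controls were probe without protein and protein plus probe with vehicle; some compounds called inactive have numbers as strong as hits; many hits fall short of the cut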
# Target sequence (P11940 whole entry, looked up): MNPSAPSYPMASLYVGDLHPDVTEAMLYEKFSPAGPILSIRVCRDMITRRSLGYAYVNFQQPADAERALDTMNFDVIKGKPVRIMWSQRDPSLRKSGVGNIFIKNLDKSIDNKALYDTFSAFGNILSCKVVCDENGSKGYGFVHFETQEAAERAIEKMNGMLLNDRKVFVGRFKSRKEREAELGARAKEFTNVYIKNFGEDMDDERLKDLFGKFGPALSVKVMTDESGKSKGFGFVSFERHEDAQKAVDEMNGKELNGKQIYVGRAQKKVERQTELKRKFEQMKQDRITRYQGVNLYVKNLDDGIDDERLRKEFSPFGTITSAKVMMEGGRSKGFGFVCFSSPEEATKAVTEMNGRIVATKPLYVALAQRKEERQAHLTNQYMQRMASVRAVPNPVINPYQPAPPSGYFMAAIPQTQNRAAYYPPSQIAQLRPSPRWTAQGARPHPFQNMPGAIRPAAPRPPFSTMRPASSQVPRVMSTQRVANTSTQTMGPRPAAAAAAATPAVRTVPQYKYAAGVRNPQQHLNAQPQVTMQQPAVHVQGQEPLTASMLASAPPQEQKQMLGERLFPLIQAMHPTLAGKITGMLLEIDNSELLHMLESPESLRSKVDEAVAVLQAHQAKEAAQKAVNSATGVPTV
# MT1-MMP act inh – blocks activation of human MT1-MMP; HT1080 RFP-PRO-GFP cells, GFP/RFP ratio fluorescence, overnight; percent of plate control window, DMSO zero; GFP/RFP ratio change, % at 20 µM; 0.061% of 360,000 active;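 active = GFP/RFP ratio change of at least 30% with cell ATP level not reduced by more than half and red fluorescence within 50% of control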; note: strong numbers were not always called active
#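 Assay system: HT1080 RFP-PRO-GFP cells | Dosing: 20 µM single dose, 1% DMSO | Incubation: Cells overnight before dosing, compound overnight, 37 °C, 5% CO2 | Evaluation: GFP/RFP fluorescence ratio | Control set: DMSO-only wells and HT1080 RFP-L50D-GFP cell wells as references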
# Env fusion inh – HIV envelope-mediated fusion inhibition | HeLa-JRFL Env/CEM21 cell fusion, luciferase | inhibition, % at 12.3 µM | 1.1% of 360,000 active | AID 651610;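 active = mean replicate inhibition score of at least 50 and every replicate individually at or above 50; inconclusive = only one of the two criteria met; inactive = mean below 50 and not all replicates reaching 50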;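 note: 0% = plate neutral controls and 100% = maraviroc near 300 nM; one replicate is shown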
# eIF4H FP inh – inhibitors of RNA binding by human eIF4H. Q15056. inhibition, % at 35 µM. eIF4H fluorescence polarization binding assay. 0.94% of 290,000 active;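 active = 50% or more with normal probe brightness, or confirmed in later tests; inconclusive = above 50% with abnormal brightness, or retests that disagree; inactive = below 50% or failed in later tests; about a fifth of its hits are not listed in these tables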;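 note: calls also rest on retests at 20 µM and on dose response follow-up; 0% = protein and probe with vehicle and 100% = probe without protein; strong numbers were not always called active; many hits fall short of the cut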
# MT1-MMP act inh RFP – also measured in MT1-MMP act inh; calls as there; RFP signal change, %; measured here: RFP expression control read;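 0 = vehicle wells; hits needed this value within 50% of zero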
# Numbers without * were called inactive; i = inactive; ? = inconclusive; · = no result given; & = joins results of further samples. An excerpt, so the mix of outcomes need not match the whole.
1	CCC1(c2ccc(F)cc2)NC(=O)N(CC(=O)c2ccc[nH]2)C1=O (stereo unspecified)
2	Clc1cccc(Cc2c(-c3cccc(Br)c3)nc3ccc(Br)cn23)c1
3	Cc1cc(S(=O)(=O)Nc2ccc(C(=O)NCc3cccnc3)cc2)ccc1F
4	O=C(O)/C=C/C(=O)NC1CCC(CC2CCC(NC(=O)/C=C/C(=O)O)CC2)CC1 (stereo unspecified)
5	O=C(c1ccccc1)c1ccc(OCC(O)CN2CCOCC2)cc1 (stereo unspecified)
6	Cc1noc(C)c1NC(=O)Nc1cccc2c1O[C@H](CN(C)C(=O)Nc1ccc3c(c1)OCO3)[C@@H](C)CN([C@H](C)CO)C2=O
7	COCCNc1nc(NCc2ccccc2)c2cnn(C)c2n1
8	COc1ccc(OC)c2[nH]c(=O)c(CCNS(=O)(=O)c3ccc(C)cc3)cc12

screen / no.	1	2	3	4	5	6	7	8
CSC inhib	-5	·	-13	-12	-5	·	2	-3
Yeast UUG start	-11	-14	-10	-20	-13	-10	-12	-10
Rce1 inh	i	·	i	i	i	·	i	i
PABP FP inh	7	·	·	20	·	·	3	-8
MT1-MMP act inh	0	1	1	-3	-4	4	-1	3
MT1-MMP act inh RFP	3	-3	-1	2	2	9	-7	-1
Env fusion inh	·	-22	·	-6	·	-36	10	·
eIF4H FP inh	17	·	·	-3	·	·	-7	-12

9	CCOC(=O)N1CCC(N2Cc3cccc(C(=O)N4CCN(c5cccc(C)c5C)CC4)c3C2=O)CC1
10	COCCn1c(SC2CCOC2=O)nc2ccccc2c1=O (stereo unspecified)
11	Cn1c(-c2sc3cc(C(F)(F)F)cnc3c2-c2cccnc2)n[nH]c1=S
12	Cc1cc(C)c(C)c(S(=O)(=O)NNC(=O)c2cccc(S(=O)(=O)N3CCOCC3)c2)c1C
13	Cc1cc2nnc(SCC(=O)Nc3cc(S(=O)(=O)N4CCOCC4)ccc3Cl)n2c2ccccc12
14	Cc1ccc(NC(=O)c2ncn(CCCN3CCN(c4ccccn4)CC3)n2)cc1C
15	CN(C)Cc1c(C(=O)N/N=C/c2ccccc2OCc2ccc(F)cc2)nnn1-c1nonc1N
16	CCOC(=O)c1cnn(Cc2cccc(Cl)c2)c1C

screen / no.	9	10	11	12	13	14	15	16
CSC inhib	-3	-2	4	-1	-1	·	-6	-3
Yeast UUG start	·	·	-24	9	·	-10	-3	·
Rce1 inh	i	i	i	i	i	·	i	i
PABP FP inh	4	10	-14	4	-1	·	5	7
MT1-MMP act inh	-3	-3	-1	-2	-6	3	-2	4
MT1-MMP act inh RFP	-3	3	5	2	-9	-2	1	-3
Env fusion inh	-4	5	·	·	-13	19	4	-21
eIF4H FP inh	5	4	-9	-11	-24	·	16	5

17	Cc1noc2ncnc(Oc3ccc(Cl)cc3Cl)c12
18	CCOC(=O)c1cnc(NCc2ccccc2)nc1C
19	C/C(CC(=O)Nc1ccc(Cl)c(C(F)(F)F)c1)=N\NC(=O)c1cccc(O)c1
20	CCCCn1c(N)c(N(CC(C)C)C(=O)CSc2n[nH]c(-c3ccc(C)cc3)n2)c(=O)[nH]c1=O
21	Cc1cc(OCC(=O)Nc2ccccc2C(N)=O)c2c(C)cc(=O)oc2c1
22	CCCCC(c1nnnn1CS(=O)(=O)c1ccc(C)cc1)N1CCC(C(N)=O)CC1 (stereo unspecified)
23	C[C@]12CC(O)C3C(CCC4=CC(=O)CC[C@@]43C)C1CCC2c1csc(-c2ccccc2)n1 (stereo partly specified)
24	COc1cc(Br)c(C(=O)c2nccc3cc(OC)c(OC)cc23)cc1OC

screen / no.	17	18	19	20	21	22	23	24
CSC inhib	12	-5	3	-11	-5	·	11	-6
Yeast UUG start	·	-11	-22	·	-20	-9	-15	-5
Rce1 inh	i	i	i	i	i	i	i	i
PABP FP inh	-16	-7	-3	·	3	-6	4	16
MT1-MMP act inh	0	·	7	0	-3	-6	-12	3
MT1-MMP act inh RFP	3	·	7	-5	0	-3	-24	0
Env fusion inh	-18	-71	-65	-3	·	-13	15	-5
eIF4H FP inh	2	2	2	·	-4	-4	9	-19

# Whole records as entered above. Screens in order: CSC inhib | Yeast UUG start | Rce1 inh | PABP FP inh | MT1-MMP act inh | MT1-MMP act inh RFP | Env fusion inh | eIF4H FP inh
# Cc1noc2ncnc(Oc3ccc(Cl)cc3Cl)c12 in the list: 12 | · | i | -16 | 0 | 3 | -18 | 2
# CCOC(=O)c1cnc(NCc2ccccc2)nc1C in the list: -5 | -11 | i | -7 | · | · | -71 | 2
# Cc1cc(OCC(=O)Nc2ccccc2C(N)=O)c2c(C)cc(=O)oc2c1 in the list: -5 | -20 | i | 3 | -3 | 0 | · | -4
# C[C@]12CC(O)C3C(CCC4=CC(=O)CC[C@@]43C)C1CCC2c1csc(-c2ccccc2)n1 (stereo partly specified) in the list: 11 | -15 | i | 4 | -12 | -24 | 15 | 9
# CCCCn1c(N)c(N(CC(C)C)C(=O)CSc2n[nH]c(-c3ccc(C)cc3)n2)c(=O)[nH]c1=O in the list: -11 | · | i | · | 0 | -5 | -3 | ·

# (cont.)
25	Cc1ccc(OCC(=O)Nc2c(C)nn(-c3ccccc3)c2C)c(Br)c1
26	CCCCNC(=O)C1(C)CCC(=O)N1CCOC (stereo unspecified)
27	O=C(Cc1n[nH]c(=O)c2ccccc12)Nc1cc(C(F)(F)F)ccc1-n1cncn1
28	CCN(C(=O)Nc1ccccc1OC)c1c(N)n(Cc2ccccc2)c(=O)[nH]c1=O
29	COc1ccc(NC(=O)c2cc(-c3ccc(C)cc3)on2)cc1
30	CCCNC(=O)C1CCN(S(=O)(=O)c2ccc(Br)cc2)CC1
31	CC(C)(C)c1ccc(C(=O)NNC(=O)c2ccncc2)cc1
32	CCN(CC)c1ncn(Cc2c(Cl)cccc2Cl)c2ncnc1-2

screen / no.	25	26	27	28	29	30	31	32
CSC inhib	·	·	·	-9	11	6	-19	24
Yeast UUG start	-16	-15	-5	-15	-5	4	-16	-2
Rce1 inh	·	·	·	i	i	i	i	i
PABP FP inh	·	·	·	3	-12	-6	-6	1
MT1-MMP act inh	6	4	-3	7	-1	18	0	-2
MT1-MMP act inh RFP	-6	3	-1	7	0	2	2	-7
Env fusion inh	4	18	7	·	-17	-48	6	·
eIF4H FP inh	·	·	·	8	-5	-3	-9	-9

33	Cc1cccc(NC(=O)CC2S/C(=N/c3nccs3)N(C)C2=O)c1 (stereo unspecified)
34	COc1ccc(/C(C)=N/Nc2ncc(Cl)cc2Cl)c(O)c1
35	c1ccc(N2CCN(c3ccccc3)C2c2cccs2)cc1
36	O=C1N(Nc2ccccc2)C(c2ccc(Br)cc2)C12CCCCC2 (stereo unspecified)
37	CC(=O)c1ccc(NC(=S)Nc2ccc(N3CCOCC3)cc2)cc1
38	O=C(C(c1ccccc1)c1ccccc1)N1CCN(Cc2ccc(Br)cc2)CC1
39	Cc1ccccc1N1C(=O)C2C3CC(=O)C(c4ccccc43)C2C1=O (stereo unspecified)
40	CCc1ccc(NC(=O)CCNS(=O)(=O)c2cccc3nsnc23)cc1

screen / no.	33	34	35	36	37	38	39	40
CSC inhib	-5	·	-1	-8	-13	-8	-9	-18
Yeast UUG start	-5	·	-1	-15	·	-11	-12	-2
Rce1 inh	i	i	·	i	i	i	i	i
PABP FP inh	-9	8	13	0	-8	-3	11	1
MT1-MMP act inh	8	2	3	2	4	-5	4	5
MT1-MMP act inh RFP	-5	2	3	-1	5	-11	5	4
Env fusion inh	-37	·	-101	12	-12	·	9	·
eIF4H FP inh	-6	17	-3	-1	4	-8	5	-1

41	O=C(CC1C(=O)NCCN1Cc1cccc(Oc2ccccc2)c1)NCc1cccnc1 (stereo unspecified)
42	COc1ccc(CCNC(=O)C2=COCCO2)cc1
43	COc1ccc(CN2C(=O)CSC2c2ccccn2)cc1 (stereo unspecified)
44	Cc1ccc2c(c1)c1c3n2CCN(C=O)C3CCC1 (stereo unspecified)
45	COc1ccc([N+](=O)[O-])cc1N/C(=N/S(=O)(=O)c1ccccc1)c1ccccc1
46	O=C(Nc1ccc(N2CCOCC2)cc1)C1CCN(C(=O)OCc2ccccc2)CC1
47	COc1ccccc1NC(=O)Nc1nc(CC(=O)Nc2cc(F)ccc2F)cs1
48	CCCCn1c(N)c(N(CCOC)C(=O)c2cc(=O)[nH]c3ccccc23)c(=O)[nH]c1=O

screen / no.	41	42	43	44	45	46	47	48
CSC inhib	-7	-22	-4	-7	-4	3	·	·
Yeast UUG start	-16	-3	·	-20	-10	·	8	-3
Rce1 inh	i	i	i	i	i	i	i	·
PABP FP inh	9	-3	3	24	4	-10	·	·
MT1-MMP act inh	1	4	-2	0	-3	-3	-2	-2
MT1-MMP act inh RFP	3	7	1	1	-1	1	-3	-1
Env fusion inh	1	·	15	-450	3	4	-3	-2
eIF4H FP inh	6	-2	-5	3	-6	0	·	·

49	COc1cccc2c3c(c(=O)[nH]c12)CCC(C)(C)O3
50	O=S(=O)(NCCC1CC1(Cl)Cl)c1ccc(Cl)cc1 (stereo unspecified)
51	COc1ccc(N(CC(=O)Nc2nc3ccc(C)cc3s2)S(=O)(=O)c2c(C)nn(C)c2C)cc1
52	O=C1Nc2cc(Cl)c(Cl)cc2N(O)N1c1ccc(Cl)cc1
53	CCOc1ccc(N2C(=O)C3ON(c4ccccc4)C(c4cccs4)C3C2=O)cc1 (stereo unspecified)
54	Cc1cccc(NC(=O)c2ccccc2OCC(=O)c2ccc(F)cc2)c1
55	COc1ccc(C(CNC(=O)COc2ccccc2OC)N(C)C)cc1OC (stereo unspecified)
56	CN1C(=O)c2cccc(NCCCCCCN3C(=O)c4ccccc4C3=O)c2C1=O

screen / no.	49	50	51	52	53	54	55	56
CSC inhib	-10	14	19	12	4	16	·	9
Yeast UUG start	-12	·	2	-11	·	·	-7	-17
Rce1 inh	i	i	i	i	i	i	i	i
PABP FP inh	-5	-2	-2	-5	8	-1	21	22
MT1-MMP act inh	2	2	-4	2	0	0	-4	-18
MT1-MMP act inh RFP	-1	0	-9	-1	6	4	-2	-26
Env fusion inh	·	7	-6	·	-4	·	·	·
eIF4H FP inh	14	-7	5	-1	-5	-1	1	23

57	CCN(CC)S(=O)(=O)c1ccc2[nH]c(=O)cc(C(=O)Nc3ccc(C)c(S(=O)(=O)N(CC)CC)c3)c2c1
58	O=C(O)c1ccc(-c2ccco2)n1Cc1ccccc1
59	Nc1ccc(C(=O)O)c(O)c1
60	O=S(=O)(NCC1CC1)c1ccc(F)c(Cl)c1
61	CCCCCCCCNC1=CC(=O)CC(C)(C)C1
62	O=C(CC1CCCC1)NCCS(=O)(=O)N1CCN(c2ccc(F)cc2)CC1
63	Nc1c(C=C2C=CC(=O)C=C2)c(=O)nc2sc(CC(=O)N3CCCC3)nn12
64	Cc1ccc(OCc2nnc(SCC(=O)CC(=O)Nc3ccccc3)o2)cc1

screen / no.	57	58	59	60	61	62	63	64
CSC inhib	8	2	-17&-13&4	-3	-1	-17	-6	1
Yeast UUG start	·	7	1&-6&-5&-18	-14	-3	·	-16	-12
Rce1 inh	i	i	i	i	i	i	i	i
PABP FP inh	11	27	4&0	4	-3	·	2	4
MT1-MMP act inh	0	-1	-1&3&0	3	3	3	3	13
MT1-MMP act inh RFP	-5	-11	5&2&1	8	-2	-1	5	2
Env fusion inh	-57	·	5	4	12	26	0	-54
eIF4H FP inh	-1	34	?	-1	-3	·	-4	-2
